S1P4 antagonist – human S1P4 receptor antagonism | S1P4-expressing cells, antagonist mode, reporter read-out | AID 1510 | inhibition, % at 4.98 µM | O95977 | actives 0.26% (n = 220,000); in the data active means inhibition above about 29%;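 further: 0% = wells stimulated with agonist and 100% = vehicle wells without agonist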
EP2 mod – modulates human prostaglandin E2 receptor EP2 signaling. P43116. EP2-expressing cells, cAMP HTRF FRET, PGE2 co-stimulation. induction, % at 25 µM. actives 0.83% (n = 260,000). AID 940;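 active means compounds whose cAMP rise, as percent of the full-agonist control response, exceeds 60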;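 further: rat C6 glioma line stably carrying human EP2 under a CMV promoter; the protocol text gives 20 µM as final concentration; 100% = response of wells given 1 µM PGE2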
Target sequence (P43116 whole entry, looked up): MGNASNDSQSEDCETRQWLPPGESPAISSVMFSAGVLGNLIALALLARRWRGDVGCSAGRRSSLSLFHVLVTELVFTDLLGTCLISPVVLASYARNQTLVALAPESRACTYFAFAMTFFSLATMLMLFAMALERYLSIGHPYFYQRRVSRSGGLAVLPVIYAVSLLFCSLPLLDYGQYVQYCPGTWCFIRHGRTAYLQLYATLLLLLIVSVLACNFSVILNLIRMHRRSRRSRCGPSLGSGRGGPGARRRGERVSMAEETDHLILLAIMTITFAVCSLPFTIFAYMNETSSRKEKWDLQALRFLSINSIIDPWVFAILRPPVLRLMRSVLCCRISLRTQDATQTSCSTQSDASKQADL
S1P4 agonist – agonists of human S1P4 receptor. O95977. S1P4-expressing cell line, agonist reporter assay. activation, % at 4.98 µM. actives 0.35% (n = 220,000). AID 1509; in the data active means activation above about 11%;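 further: 0% = DMSO vehicle and 100% = reference agonist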
TRPML3 ag – activates the human TRPML3 channel. Q8TDD5. HEK293 TRPML3-YFP, Fluo-8 calcium fluorescence; 100% = the carbachol control signal. activation, % at 3 µM. actives 0.29% (n = 220,000). AID 1448;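 active means activation above its plate's cutoff, the mean activation of the plate's test wells plus 3 SD, cut at about 12% in these data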;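 further: 0% = DMSO only wells and 100% = carbachol wells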
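system = HEK293 cells stably carrying human TRPML3-YFP | doses = one concentration, 3 µM nominal, 0.3% DMSO | timing = dye loading 1 h 37 °C then 30 min ambient, 125 s read | detection = Fluo-8 calcium dye fluorescence, ex 470-495, em 515-575 nm | benchmarks = high control carbachol 87 µM, low control DMSO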
TRPN1 ag – zebrafish TRPN1 (NompC) channel agonism; AID 1424; HEK293 zebrafish TRPN1-YFP, Fluo-8 calcium fluorescence; 100% = response to 87 µM carbachol; actives 0.18% (n = 220,000); activation, % at 3 µM;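 active means activation above its plate's cutoff, the mean activation of test wells on that plate plus 3 SD, cut at about 19% in these data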;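 further: 0% = DMSO alone and 100% = 87 µM carbachol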
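Assay system: Zebrafish TRPN1-YFP in HEK293 cells | Incubation: Dye loading 1 h at 37 °C, then 30 min room temperature | Measured by: Kinetic Fluo-8 fluorescence, ex 470-495, em 515-575 nm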
An asterisk follows results filed as active; nt = not tested or not shown; & = joins results of further samples. A portion of the library; the hit share may differ from the screen's.

1: CCc1ccc(Oc2coc3cc(OCC(=O)Nc4cc(C)ccc4C)ccc3c2=O)cc1
2: COCCOC(=O)C1=C(C)NC(C)=C(C(=O)OC(C)C)C1c1cccc([N+](=O)[O-])c1 (stereo unspecified)
3: NCCCC(N)(C(=O)O)C(F)F (stereo unspecified)
4: Nc1nonc1-n1nnc(C(=O)N/N=C/c2ccc(OCc3ccc(F)cc3)cc2)c1COc1ccccc1
5: O=C1OCCN1/N=C/c1ccc([N+](=O)[O-])o1
6: CC(=O)[C@H]1CC[C@H]2[C@@H]3CCC4=CC(=O)CC[C@]4(C)[C@H]3CC[C@]12C
7: CCCCC[C@H](O)/C=C/[C@@H]1[C@@H](C/C=C\CCCC(=O)O)[C@@H](O)C[C@H]1O
8: CC(C)c1ccc2oc3nc(N)c(C(=O)O)cc3c(=O)c2c1
9: CN1CCN(CCCN2c3ccccc3Sc3ccc(Cl)cc32)CC1
10: CC(C)NC[C@H](O)COc1cccc2[nH]ccc12

entry no.,1,2,3,4,5,6,7,8,9,10
S1P4 antagonist,-19.8,4.5,-19.2,-22.9,-0.4,-14.9&1.8,-32.9,-7.0,5.0&-8.7,nt
EP2 mod,30.5,39.7&31.0&33.2&19.6,9.6&-2.6,19.2,11.5&-11.1,13.1&23.6,102.2*,nt,-27.3&15.4&-11.2,-11.3&0.9&7.5
S1P4 agonist,1.4,-1.0,1.9,-1.4,-0.1,1.2&0.3,1.1,0.2,1.7&0.1,nt
TRPML3 ag,0.3,-0.6,0.2,0.9,0.3,0.7&1.4,0.2,0.9,1.6&0.9,nt
TRPN1 ag,0.2,-1.8,2.5,2.2,0.7,-0.9&0.8,1.9,0.4,0.5&-0.1,nt

Grouped by structure: the entries above containing fluorine.
3: NCCCC(N)(C(=O)O)C(F)F (stereo unspecified)
4: Nc1nonc1-n1nnc(C(=O)N/N=C/c2ccc(OCc3ccc(F)cc3)cc2)c1COc1ccccc1

entry no.,3,4
S1P4 antagonist,-19.2,-22.9
EP2 mod,9.6&-2.6,19.2
S1P4 agonist,1.9,-1.4
TRPML3 ag,0.2,0.9
TRPN1 ag,2.5,2.2

5 entries from above, as tab-separated lines:
No.	canonical_smiles	S1P4 antagonist	EP2 mod	S1P4 agonist	TRPML3 ag	TRPN1 ag
2	COCCOC(=O)C1=C(C)NC(C)=C(C(=O)OC(C)C)C1c1cccc([N+](=O)[O-])c1 (stereo unspecified)	4.5	39.7&31.0&33.2&19.6	-1.0	-0.6	-1.8
9	CN1CCN(CCCN2c3ccccc3Sc3ccc(Cl)cc32)CC1	5.0&-8.7	-27.3&15.4&-11.2	1.7&0.1	1.6&0.9	0.5&-0.1
10	CC(C)NC[C@H](O)COc1cccc2[nH]ccc12	nt	-11.3&0.9&7.5	nt	nt	nt
6	CC(=O)[C@H]1CC[C@H]2[C@@H]3CCC4=CC(=O)CC[C@]4(C)[C@H]3CC[C@]12C	-14.9&1.8	13.1&23.6	1.2&0.3	0.7&1.4	-0.9&0.8
3	NCCCC(N)(C(=O)O)C(F)F (stereo unspecified)	-19.2	9.6&-2.6	1.9	0.2	2.5

The listing continues:
11: Cn1nnnc1SCC1=C(C(=O)O)N2C(=O)[C@@H](NC(=O)[C@H](O)c3ccccc3)[C@H]2SC1
12: CN1C2CCC1CC(OC(c1ccccc1)c1ccccc1)C2 (stereo unspecified)
13: Cc1nc2n(c(=O)c1CCN1CCC(c3noc4cc(F)ccc34)CC1)CCCC2
14: CCCNCC(O)COc1ccccc1C(=O)CCc1ccccc1 (stereo unspecified)
15: O=C(NCC1CCCCN1)c1cc(OCC(F)(F)F)ccc1OCC(F)(F)F (stereo unspecified)
16: O=c1[nH]c(=O)n(C2C[C@H](O)[C@@H](CO)O2)cc1C(F)(F)F (stereo partly specified)
17: C#C[C@]1(O)CC[C@H]2[C@@H]3CCC4=C(CCC(=O)C4)[C@H]3CC[C@@]21C
18: OCCN1CCN(CCCN2c3ccccc3Sc3ccc(C(F)(F)F)cc32)CC1
19: CNCC[C@@H](Oc1ccc(C(F)(F)F)cc1)c1ccccc1
20: CC(=O)Oc1cc(C(C)C)c(OCCN(C)C)cc1C

entry no.,11,12,13,14,15,16,17,18,19,20
S1P4 antagonist,-16.8,-7.9,7.6,-14.8,-24.1,nt,-20.4,-9.8,nt,-16.0
EP2 mod,6.8,2.0&-2.8&-11.8,17.5,-24.4&-2.4&-21.8,12.1&-3.0,22.9,-30.7,-26.5&5.8&-15.0,-22.2,17.9&28.2
S1P4 agonist,1.3,0.2,0.2,0.0,1.3,nt,0.3,0.6,nt,0.1
TRPML3 ag,1.1,1.6,0.4,0.5,1.0,nt,0.2,1.8,nt,1.4
TRPN1 ag,1.3,1.6,-0.1,0.4,-0.5,nt,0.4,1.7,nt,0.2

Single entries from above.
EP2 mod, entry 20 = 17.9&28.2
EP2 mod, entry 16 = 22.9

The main list resumes with the 2 entries that preceded the break.
19: CNCC[C@@H](Oc1ccc(C(F)(F)F)cc1)c1ccccc1
20: CC(=O)Oc1cc(C(C)C)c(OCCN(C)C)cc1C
21: CNCCC(Oc1ccc(C(F)(F)F)cc1)c1ccccc1 (stereo unspecified)
22: COCCCC/C(=N\OCCN)c1ccc(C(F)(F)F)cc1
23: C#C[C@]1(O)CCC2C3CCC4=CC(=O)CC[C@@H]4C3CC[C@@]21C (stereo partly specified)
24: CN(C)C(=O)C(CCN1CCC(O)(c2ccc(Cl)cc2)CC1)(c1ccccc1)c1ccccc1
25: Nc1[nH]c(=O)ncc1F

entry no.,19,20,21,22,23,24,25
S1P4 antagonist,nt,-16.0,-9.6,-4.8&8.3,nt,-6.0,-3.6&7.4
EP2 mod,-22.2,17.9&28.2,-12.4&-4.0&0.8,-14.0&-2.1&1.0,-27.8,11.3&1.9&-11.5,18.8
S1P4 agonist,nt,0.1,2.6,-0.7&1.9,nt,1.3,0.6&0.7
TRPML3 ag,nt,1.4,1.6,0.8&0.6,nt,1.1,0.7&0.4
TRPN1 ag,nt,0.2,0.7,0.5&-1.2,nt,0.9,1.1&0.1

From PubChem
